From PubChem
HPGD inh – qHTS Assay for Inhibitors of HPGD (15-Hydroxyprostaglandin Dehydrogenase) | 15-hydroxyprostaglandin dehydrogenase [NAD(+)] (Homo sapiens), P15428 | purified HPGD, NADH fluorescence kinetic, PGE2 substrate | Potency, µM, for the others: at the highest dose activity change, negative = inhibition, hits mostly inhibitors | 150,000 compounds, 4.3% hits | AID 894, 2007; active = well fitted inhibition curve with a large enough effect (not every such curve was filed as active); inconclusive = small, poorly fitted or top-dose-only effect, or another doubt; inactive = no such curve, though single readings can be large or run the other way;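 note: top concentration of the series not given in the record; plate controls included wells without enzyme; inactives centre near -10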
Target sequence (P15428 whole entry, looked up): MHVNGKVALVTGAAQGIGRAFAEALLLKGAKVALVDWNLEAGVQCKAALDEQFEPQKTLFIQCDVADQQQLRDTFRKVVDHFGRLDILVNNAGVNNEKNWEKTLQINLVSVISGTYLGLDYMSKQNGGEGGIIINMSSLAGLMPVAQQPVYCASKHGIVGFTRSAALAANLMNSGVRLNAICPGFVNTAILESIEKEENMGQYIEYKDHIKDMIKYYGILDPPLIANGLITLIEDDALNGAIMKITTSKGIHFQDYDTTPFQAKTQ
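NADH formation kinetics: reaction with 30 uM PGE2 and 1 mM NAD+ (final), 20 nM enzyme, Tris-HCl pH 8 with Tween 20, after 15 min compound preincubation at room temperature. Fluorescence change, last versus first of five reads.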
Numbers without * were called inactive; ? = inconclusive; & = joins results of further samples. % is set by controls: 0 for no effect and ±100 for the full control effect; potency is the fitted concentration of half-maximal effect.

Structure	HPGD inh
CC1=NC(C(F)(F)F)(C(F)(F)F)C2=C(CC(C)(C)CC2=O)N1Cc1ccco1	-11%
c1ccc(-n2cnc3cc(NCc4ccccn4)ccc32)cc1	-10%
Cn1c(CCN2CCCCC2)nc2cc(NS(=O)(=O)c3ccc(Cl)cc3)ccc21	-8%
COc1ccc(-c2nnc(SCC(=O)N3CCCCC3)o2)cc1OC	-14%
Cc1ccccc1NC(=O)C1CCCN(S(=O)(=O)c2c(C)noc2C)C1 (stereo unspecified)	-4%
COC(=O)CSc1nnc(CNS(=O)(=O)c2ccc(C)cc2)n1C	-12%
Cc1ccc(OCC(=O)NC2CCS(=O)(=O)C2)cc1 (stereo unspecified)	-13%
O=C(Oc1ccc2c(c1)OCO2)c1cccs1	-6%
CCC(Cc1ccccc1)NC(=O)CCn1cccc1 (stereo unspecified)	?
CO/N=C(\C(=O)N[C@@H]1C(=O)N2C(C(=O)O)=C(COC(C)=O)CS[C@@H]12)c1csc(N)n1	-6%
O=C1C2C3C=CC(C3)C2C(=O)N1CNc1ccc(O)cc1 (stereo unspecified)	-12%
O=C(O)c1[nH]c2ccccc2c1-c1ccccc1	?

(list continues)
Structure	HPGD inh
CC(=O)n1c(Cl)c(NC(=O)CCl)c2ccccc21	-7%
COc1ccccc1CNC(=O)Cc1ccc(Br)cc1	-26%
CCOC(=O)N1CCc2c(sc3c2c(=O)n(Cc2ccccc2)c(=O)n3Cc2ccc(C)cc2)C1	-9%
O=C(CN1CCN(Cc2ccccc2F)C1=O)NCc1cccnc1	-6%
CCOC(=O)CCc1c(C)nc2cc(-c3ccc(F)cc3)[nH]n2c1=O	?
O=C1CCCN1CCCNc1ncnc2c1[nH]c1ccc(Cl)cc12	-21%
O=C(CSc1nc2ccccc2c(=O)n1C1CC1)NCc1ccccc1	-13%
COc1ccc2nc(COC(=O)c3ccco3)c(C(C)=O)[n+]([O-])c2c1	-22%
Nc1nc(CN2CCc3ccccc3C2)nc(Nc2ccccc2)n1	-10%
CCOC(=O)c1sc(/N=C/Nc2nc(C)c(C(=O)OCC)s2)nc1C	?
COc1ccc(C=C(c2ccc(OC)cc2)c2ccc(OC)cc2)cc1	?
CNc1oc(-c2ccccc2Cl)nc1P(=O)(c1ccccc1)c1ccccc1	-16%

Remaining list, next part
Structure	HPGD inh
CCN(CC)C(=O)CCc1nc2sc3c(c2c(=O)[nH]1)CCCC3	-7%
O=C(Nc1cccc(Cl)c1)N1CCN(C/C=C/c2ccccc2)CC1	-8%
Cc1ccccc1NC(=O)NCc1ccco1	-24%
O=C(CSc1nnc(SCc2ccccc2)s1)N/N=C/c1ccc(Cl)cc1Cl	-7%
N=c1cc(C2(O)CCCCC2)n2c(nc3ccccc32)s1	-15%
CCOC(=O)c1sc(NC(=O)c2ccc(S(=O)(=O)N3CCCCCC3)cc2)nc1-c1ccccc1	?
COc1ccc(CN2C(=O)CC(Cc3ccc(C)cc3)C2=O)cc1OC (stereo unspecified)	-4%
Cc1ccc(NC(=O)Nc2cccs2)c(Cl)c1	-18%
COC(=O)c1c(NC(=O)c2nn(C)cc2Cl)sc2c1CCCC2	?
Cc1c(N(C)C(=O)c2ccco2)c(=O)n(-c2ccccc2)n1C	2%
Cc1cc(C(=O)C(=O)N(C)C)c(C)n1-c1ccc([N+](=O)[O-])cc1	-12%
CCCCSc1nc(O)c(C2OC(=O)c3c2ccc(OC)c3OC)c(=O)n1-c1ccccc1 (stereo unspecified)	-15%

The list continues.
Structure	HPGD inh
O=C(CN1C(=O)C2C3C=CC(C3)C2C1=O)N1CC=C(c2ccccc2)CC1 (stereo unspecified)	-6%
C=CCNC(=O)c1scc2c1CCCC2	-14%
O=C(c1cccc(F)c1)N1CCC2(CC1)CCN(c1cccc(-c3ccccc3)c1)CC2	-16%
Cc1ccc(/C=N/Nc2ccc(Cl)c(C(=O)O)c2)s1	-21%
O=C1CNC(=O)/C1=C/c1ccc(O)cc1	?
Cc1ccc(C(=O)Nc2cc(C(C)C)c(O)c(C(C)C)c2)cc1	-6%
COc1cc(SC)ccc1C(=O)NCc1ccc(C)cc1	20µM*
O=C(N/N=C1/CCSC1)c1cccc([N+](=O)[O-])c1	-17%
O=S(=O)(c1ccccc1)N1CCSC1c1ccco1 (stereo unspecified)	-4%
COC(=O)Oc1cncc(C(=O)O)c1	-10%
CC1=N[C@@](C)(COC(=O)[C@]2(C)N[C@](C)(CO)CO2)COC1=O	0%
CC1=C(C(=O)Nc2ccccc2)C(c2cccnc2)n2nc(-c3cccnc3)nc2N1 (stereo unspecified)	-23%

(next part)
Structure	HPGD inh
CC(=O)N1c2ccccc2NC2=C(C(=O)CCC2)C1c1ccc(F)cc1 (stereo unspecified)	-24%
CN(c1ccccc1)S(=O)(=O)c1cccc(NC(=O)CSc2ncc(C(F)(F)F)cc2Cl)c1	-20%
O=C(CCC(=O)c1ccc(Oc2ccccc2)cc1)Nc1cccc(Cl)c1	-17%
COc1ccc(N(CC(=O)Nc2cc(C)ccc2C)S(=O)(=O)c2c(C)nn(C)c2C)cc1	2%
CC(=O)NC1=NN(C(C)=O)C(C)(c2ccc(Cl)s2)S1 (stereo unspecified)	-3%
COc1cc(OC)cc(C(=O)NN2CCCCC2)c1	-21%
COc1ccc(Cn2ccc(=O)c(Cc3c(Cl)cccc3Cl)c2C)cc1	3%
Cc1nnc(SCCC(=O)Nc2ccc(F)cc2)s1	-16%
CCOC(=O)/C(C#N)=N\Nc1ccc(S(=O)(=O)Nc2nc(C)cc(C)n2)cc1	?
O=S(=O)(/C=C/c1ccccc1)Nc1ccc(N2CCOCC2)cc1	-8%
COc1ccccc1-c1nc(-c2ccccn2)no1	-23%
CC1CN(c2nn3c(=O)c4ccccc4nc3c3ccccc23)CC(C)O1 (stereo unspecified)	-22%

Pulled one by one from the entries so far, 3 records:
Structure	HPGD inh
COc1ccccc1-c1nc(-c2ccccn2)no1	-23%
CCOC(=O)/C(C#N)=N\Nc1ccc(S(=O)(=O)Nc2nc(C)cc(C)n2)cc1	?
COc1cc(OC)cc(C(=O)NN2CCCCC2)c1	-21%

(list continues)
Structure	HPGD inh
N#Cc1c2n(cnc1=O)CCCCC2	-13%
Cc1nnn(-c2nonc2N)c1C(=O)N/N=C/c1cccc2ccccc12	?
C=CCn1c2ccccc2c2nnc(SC(CC)C(=O)Nc3sc4c(c3C#N)CCCC4)nc21 (stereo unspecified)	-18%
COc1ccc(C2=Nn3c(nnc3-c3ccc(OC)cc3)SC2)cc1	-23%
Cc1ccc2c(c1)NCC(C(=O)NCc1ccccc1)O2 (stereo unspecified)	-17%
COc1cc(Cl)c(S(=O)(=O)N2CCOCC2)cc1Cl	-10%
O=C(CSc1ncc(-c2ccccc2)n1CC1CCCO1)N1CCCCC1 (stereo unspecified)	-13%
CC(=O)CC(c1ccccc1)c1c(O)c2ccccc2oc1=O (stereo unspecified)	-26%
O=C(Cc1ccc2c(c1)OCCO2)N1CCN(S(=O)(=O)c2cccc(C(F)(F)F)c2)CC1	-8%
CCCCCCc1cc2cc(S(=O)(=O)c3ccc(F)c(Cl)c3)c(=O)oc2cc1O	?
O=C(CN1CCN(c2ccccc2)CC1)Nc1ccccc1C(F)(F)F	-12%
Cc1cc(C)nc(N(C#N)CN2C(=O)c3ccccc3S2(=O)=O)n1	-13%

(next part)
Structure	HPGD inh
O=[N+]([O-])c1cc([N+](=O)[O-])c(N2CCCCCC2)cc1NCCO	-10%
Cc1c(C(=O)C(=O)NCCc2ccc(S(N)(=O)=O)cc2)c2ccccc2n1C	-15%
Cc1ncoc1C(=O)Nc1cccc(Cl)c1	-26%
CCN1C(=O)c2cccc3c(S(=O)(=O)Nc4ccccc4)ccc1c23	-15%
O=C(Nc1ccccn1)c1c(O)c2cccc3c2n(c1=O)CCC3	-22%
O=C(O)C1CCNCC1	-2%&-2%
Nc1nc(CSc2nc3ccccc3s2)nc(Nc2ccccc2)n1	-30%
Cc1ccc(S(=O)(=O)NN2C(=O)c3ccccc3NC2C)cc1 (stereo unspecified)	?
CCOC(=O)c1cc2c(=O)n3ccccc3nc2n(Cc2ccccc2Cl)c1=N	?
CCN(CC)CCn1c(-c2ccccc2)nc2c(N3CCOCC3)nc(C)nc21	?
COC(=O)c1ccc(CSc2ccccc2C)o1	-25%
CC(C)(O)[C@@H]1Cc2c(ccc3ccc(=O)oc23)O1	?

(next part)
Structure	HPGD inh
CNCC(O)COc1ccccc1 (stereo unspecified)	1%
Cc1cc(C(=O)Cn2nnc(-c3ccc(Cl)cc3)n2)c(C)n1-c1ccccc1	-9%
CO/N=C/NC(=O)C1=NOC(CNc2ncc(C(F)(F)F)cc2Cl)C1 (stereo unspecified)	-8%
COc1ccc(-c2ccc(CCC(=O)O)n2C(C)C)cc1	?
COc1ccccc1OCCC(=O)OCC(=O)Nc1cccc(Br)c1	-5%
COc1ccc(OC2OC3COC(c4ccco4)OC3C(O)C2NC(C)=O)cc1 (stereo unspecified)	3%
CCOC(=O)c1[nH]c2ccc(F)cc2c1NC(=O)CN1CCc2cc(OC)c(OC)cc2C1	?
Cc1cc(C)c(NC(=O)CS(=O)CC(=O)N2CCN(c3ccccc3)CC2)c(C)c1 (stereo unspecified)	-2%
Cc1cc(=O)n2c3ccccc3n(CC(O)CN3CCCC3)c2c1C#N (stereo unspecified)	-25%
CNc1nc(Oc2ccc(=O)n(C)n2)nc(N2CCOCC2)n1	-14%
CCc1ccccc1NC(=O)COC(=O)C1CC(=O)N(c2ccc(F)cc2)C1 (stereo unspecified)	-8%
O=C(NCc1ccco1)c1cc(C(=O)C2CCCCC2)c[nH]1	-8%

Following part.
Structure	HPGD inh
COCCNC(=O)COc1ccccc1Cl	?
CC(C)CC(c1nnnn1Cc1ccccc1)N1CCC(C(N)=O)CC1 (stereo unspecified)	1%
COc1ccc(C)cc1-n1nnnc1SCc1cn2ccsc2n1	-1%
N#CC(C(=O)NC1CCCCC1)c1nc2ccccc2nc1N1CCN(c2ccc(F)cc2)CC1 (stereo unspecified)	-6%
CCOC(=O)C1=C(c2ccccc2)N2CCS(=O)(=O)N=C2S1	-6%
COc1ccccc1N1CCN(S(=O)(=O)CC23CCC(CC2=O)C3(C)C)CC1 (stereo unspecified)	5%
Cn1cnnc1SCC(=O)OCN1C(=O)c2ccccc2C1=O	-7%
Cc1ccc(NC(=O)CSc2nc(O)cc(=O)n2C)cc1	-4%
Cc1n[nH]c(C)c1Cc1ccc(C(=O)O)cc1	4%
COc1ccc2cc(C(c3nnnn3C3CCCC3)N3CCCCCC3)c3nnnn3c2c1 (stereo unspecified)	-9%
Cc1nnc(SCC(=O)N2CCc3ccccc32)s1	-10%
COc1ccccc1CNc1nc2nc(C)c(Cl)c(=O)n2[nH]1	-4%

Part of the list above, with each value named:
Cn1cnnc1SCC(=O)OCN1C(=O)c2ccccc2C1=O
  HPGD inh = -7%
Cc1ccc(NC(=O)CSc2nc(O)cc(=O)n2C)cc1
  HPGD inh = -4%
Cc1n[nH]c(C)c1Cc1ccc(C(=O)O)cc1
  HPGD inh = 4%
COc1ccc2cc(C(c3nnnn3C3CCCC3)N3CCCCCC3)c3nnnn3c2c1 (stereo unspecified)
  HPGD inh = -9%

Following part.
Structure	HPGD inh
COC(=O)c1c(NC(=O)c2cccnc2Cl)sc(C(=O)N(C)C)c1C	-24%
CC1(OC(=O)c2ccc(Cl)nc2)C(=O)C=C2C=C(c3ccc(C#N)cc3)OC=C2C1=O (stereo unspecified)	-6%&-9%
CCCC(=O)Nc1cc(S(=O)(=O)N(CC)CC)ccc1Cl	-24%
COc1cc(C2C(C(=O)OC(C)C)=C(C)Nc3ncnn32)cc(OC)c1OC (stereo unspecified)	-11%
CC1(C)CC(=O)C2=C(C1)OC1=C(C(=O)CC(C)(C)C1)C2(C)C	-3%
Cn1c(=O)[nH]c(=O)c2c1nc(Br)n2CC(O)c1ccccc1 (stereo unspecified)	-10%
Cc1cc(C)c(S(=O)(=O)N2CCCCC2)cc1N(C)S(=O)(=O)c1ccc(Cl)cc1	-9%
CC(=O)/C=C1\SC(CC(=O)O)C(=O)N1c1ccccc1 (stereo unspecified)	-14%
CN(c1ccccc1)c1nc(-n2ccnc2)nc(-n2ccnc2)n1	-8%
COc1ccc(-n2c(Cn3c(=O)sc4ccccc43)nnc2SC)cc1	-14%
O=c1c2ccccc2oc2nc(-c3cccs3)n(CCc3ccccc3)c(=O)c12	-9%
CN(CC(=O)Nc1ccc(Cl)cc1)CC(=O)Nc1cc(Cl)ccc1C#N	-11%

(more compounds)
Structure	HPGD inh
CC(=O)Nn1c(-c2ccccc2)cc2ccccc21	?
CCOC(=O)C1=C(C)NC(C)=C(C(=O)OCC)C1c1cn(-c2ccccc2)nc1-c1ccco1	15%
CC(=O)Nc1c(O)nc(SCC(=O)Nc2ccc(C(C)=O)cc2)[nH]c1=O	-27%
CCC(C)(C(=O)NC1CCCC1)N(CC1CCCO1)C(=O)c1ccc2c(c1)OCO2 (stereo unspecified)	1%
Cc1ccc2nc(N3C(=O)C(O)=C(C(=O)c4ccco4)C3c3cccs3)sc2c1 (stereo unspecified)	14µM*
CS(=O)(=O)N(CCc1ccccc1)CC(=O)N1CCN(Cc2ccccc2)CC1	-6%
Cn1cc(/C=N/n2cnc3scc(-c4ccccc4)c3c2=O)c2ccccc21	-30%
C=CCNC(=O)/C=C/c1c(F)cccc1Cl	?
CCOc1ccc(N2C(=O)/C(=C/c3cccs3)N(CC(=O)OC)C2=S)cc1	-4%

These rows are one share of the data (hit frequency here may not be typical).
